GIRK2 activ: activators of human GIRK2 potassium channels; HEK293-GIRK2 thallium flux, Thallos fluorescence; AID 1259325, 2017; 63,000 tested, 0.05% active; calls only for hits at 25 µM; G protein-activated inward rectifier potassium channel 2 (Homo sapiens), P48051;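 active = among the strongest 0.2% of first-round signals and kept after retests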;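 note: first round at about 10 µM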
Target sequence (P48051 whole entry, looked up): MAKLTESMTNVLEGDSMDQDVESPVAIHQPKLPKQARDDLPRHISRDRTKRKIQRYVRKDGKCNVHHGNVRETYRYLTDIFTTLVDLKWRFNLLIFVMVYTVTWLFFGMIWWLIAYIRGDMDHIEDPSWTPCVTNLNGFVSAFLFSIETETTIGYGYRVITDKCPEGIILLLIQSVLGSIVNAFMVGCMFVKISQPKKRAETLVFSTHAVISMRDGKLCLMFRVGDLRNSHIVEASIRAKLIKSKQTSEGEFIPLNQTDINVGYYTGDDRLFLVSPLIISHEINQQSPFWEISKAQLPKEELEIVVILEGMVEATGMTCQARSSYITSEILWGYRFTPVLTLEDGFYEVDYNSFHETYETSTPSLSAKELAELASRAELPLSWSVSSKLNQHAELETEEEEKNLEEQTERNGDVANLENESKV
Calls only; i = inactive. Only part of the results is shown; the hit share may differ from the screen's.

SMILES | GIRK2 activ
O=C(NCC(F)(F)F)C1CCN(S(=O)(=O)CCN2C(=O)CCCC2=O)CC1 | i
NC(=O)C1CCCc2c1[nH]c1ccc(Cl)cc21 (centres undefined) | i
CC(N)C(O)CCCCCCCCCCCCCCCCC(O)C(C)OC1OC(CO)C(O)C(O)C1O (centres undefined) | i
COc1ccc(N2CCN(Cc3nc4c(c(=O)n(C)c(=O)n4C)n3C(C)C)CC2)cc1 | i
CCOC(=O)CSc1nc2ncccc2c(=O)n1Cc1ccccc1 | i
Cc1nc2sccn2c1-c1nnc(SCC(=O)Nc2ccc(Br)cc2)n1C | i
Cc1ccnc(NC(=O)CCn2nc(C)c(C)c2C)c1 | i
COc1ccccc1NC(=O)C(=O)NCCc1ccoc1 | i
Cc1ccc(=O)n(CC(=O)NCCOc2ccc(F)cc2)n1 | i
CSc1ccccc1CN1CCC(CNC(=O)c2ccccc2Br)CC1 | i
N#Cc1ccsc1NC(=O)Cn1c(=O)oc2ccccc21 | i
COc1ccc(S(=O)(=O)NCC2CCCO2)cc1N(C)S(=O)(=O)c1ccccc1 (centres undefined) | i
CC1CCC(NC(=O)c2ccc3c(=O)nc4c(-c5ccc(Cl)cc5)n[nH]n4c3c2)CC1 (centres undefined) | i
CCNc1cc(NCCNC(=O)Cc2ccc(OC)cc2)nc(C)n1 | i
COc1ccc(NC(=O)N2CCN(c3cc(OC(C)C)nc(C)n3)CC2)cc1 | i
CCOC(=O)c1sc(NC(=O)CCCS(=O)(=O)Cc2ccccc2)c(C#N)c1C | i
CCc1nc(-c2ccc(-n3ccc(C(=O)N4CCN(c5ccc(F)cc5)CC4)n3)cc2)no1 | i
O=C(/C=C/c1ccc2c(c1)OCO2)N(Cc1ccsc1)Cc1ccccn1 | i
Cc1ccc(-n2nnc3c(N4CCN(C(=O)CCl)CC4)ncnc32)cc1 | i
COc1ccccc1N1CCN(c2ccnc(SCC(=O)Nc3cc(F)ccc3F)n2)CC1 | i
O=C(C1CCCO1)N1CCN(C(=O)C(c2ccccc2)n2cccc2)CC1 (centres undefined) | i
O=c1c2nnc(-c3ccc(Cl)cc3)n2ccn1-c1ccc(F)cc1 | i
O=C(Cc1cc(=O)[nH]c(SCc2ccccc2)n1)Nc1ccc2c(c1)OCO2 | i
Cc1ccc2c(NC(=O)CNC(=O)c3ccc(=O)[nH]c3)cccc2n1 | i
N#Cc1cccc(NC(=O)c2cn(CC(O)c3cccs3)nn2)c1 (centres undefined) | i
O=C(CCc1ccccc1)NC1CCCC(OC(=O)Nc2ccccc2)C1 (centres undefined) | i
O=C(Nc1ccc(-n2nnc(C(=O)NC3CCCC3)n2)cc1)c1ccc2c(c1)OCO2 | i
Cc1ccc(S(=O)(=O)c2cnc(N3CCN(c4ccccc4)CC3)nc2N)cc1C | i
Cc1cc(C)c2c(CN3CCN(CCO)CC3)cc(=O)oc2c1 | i
Cc1ccc(-c2cc3c4nn(CC(=O)Nc5ccc6c(c5)OCCO6)c(=O)n4ccn3n2)cc1C | i
CCn1cc(C(=O)NCCc2csc(-n3cccn3)n2)c(=O)c2ccc(C)nc21 | i
O=C(CN1CCC(c2nnc(C(F)(F)F)o2)CC1)NCC1CCCO1 (centres undefined) | i
O=C(NCC1(c2cccs2)CCOCC1)C(=O)Nc1cc2c3c(c1)CC(=O)N3CCC2 | i
O=C(CC(c1ccccc1)c1ccccc1)NCCC(O)c1ccc2c(c1)OCO2 (centres undefined) | i
CCOC(=O)N1CCN(C(=O)c2cc(-c3ccc(F)cc3)nn2C)CC1 | i
COc1nn(C)cc1C(=O)N1CCCC(c2nnc(-c3ccccc3F)s2)C1 (centres undefined) | i
O=C(COc1ccc2ccccc2c1)NCCCS(=O)(=O)N1CCc2ccccc2C1 | i
CCc1c(C)nc2n(c1=O)CC(C(=O)N1CCN(c3ccccc3)CC1)CS2 (centres undefined) | i
CN1CCc2c(OCC(=O)N3CCCCCC3)cccc2C1=O | i
COc1cc(Br)cc2c1OC1(C)CC2NC(=O)N1c1ccc(C)cc1 (centres undefined) | i
COc1ccc(NC(=O)Cn2c(-c3ccc(C)cc3)nc3c(c2=O)CCN(Cc2ccccc2)C3)cc1 | i
O=C(NC1CCN(Cc2ccccc2)CC1)C1CCN(c2nc3ccccc3[nH]c2=O)CC1 | i
O=C(c1cccs1)N1CCN(C2=NN=C(c3ccccc3)CS2)CC1 | i
Cc1nc(C)c(CC(=O)NCc2ccccc2Cl)s1 | i
C#CCOCC1CCCN(C(=O)COc2ccc(Cl)cc2Cl)C1 (centres undefined) | i
CCOCC(=O)NCC1CCN(C(=O)c2ccoc2)CC1 | i
CCOc1ccc(NC(=O)Cn2cc(C(=O)c3ccc(CC)cc3)c(=O)c3cc(OC)ccc32)cc1 | i
O=C(c1ccc(F)c(F)c1)N1CC(c2nc(-c3cccc(Cl)c3)no2)C1 | i
O=S(=O)(c1ccc(-c2nnc(SCCc3ccccc3)o2)cc1)N1CCCCCC1 | i
COc1ccc(NC(=O)CSc2ncnc3sc4c(c23)CCCCC4)cc1 | i
Cn1c(-c2ccccn2)nn(CCNC(=O)CCC(=O)c2ccccc2)c1=O | i
C/C=C/C=C/C=C/C(=O)OC1C=C2C(O)OC(=O)[C@]2(O)[C@@]2(C)CCCC(C)(C)[C@H]12 (some centres undefined) | i
COc1ccc(NC(=O)CCCSc2ccc(F)cc2)c([N+](=O)[O-])c1 | i
COCCc1nnc(NC(=O)c2ccc(C(C)=O)cc2)o1 | i
COc1cc2c(cc1OC)CN(C(=O)CSc1nnc3scc(-c4ccccc4)n13)CC2 | i
Cc1c(C(=O)N(C)C)sc2[nH]c(=O)c(C(=O)Nc3ccc(Cl)cc3)c(O)c12 | i
Cc1ccc(-c2ccc(=O)n(C(C)C(=O)Nc3nc(C)cs3)n2)cc1 (centres undefined) | i
COCCOC(=O)c1c(C)oc2ccc(OCC(=O)OC(C)(C)C)cc12 | i
CCOc1ccc(-c2cc3c(=O)n(Cc4nc(-c5ccccc5Br)no4)ncn3n2)cc1 | i
CCOc1ccc(-c2csc(-n3nc(C)cc3NC(=O)COc3ccccc3OC)n2)cc1 | i
(listing goes on)
SMILES | GIRK2 activ
COc1ccc(S(=O)(=O)NCCc2ccccc2)c(C)c1C | i
O=S(=O)(c1cccs1)N1CN(CC2CCCO2)c2nc3ccccc3nc21 (centres undefined) | i
CCn1c(SCC(=O)Nc2cccc(Cl)c2)nc2c3cc(OC)ccc3n(C)c2c1=O | i
CCCS(=O)(=O)N1CCCc2ccc(NC(=O)NCc3cccc4ccccc34)cc21 | i
Cc1ccc(=O)n(CC(=O)N2CCCCC2C)n1 (centres undefined) | i
N#Cc1ccc(Cl)cc1NC(=O)C(=O)NCC1(O)CCOc2ccccc21 (centres undefined) | i
COc1ccc(NC(=O)C2COCC(=O)N2Cc2ccccc2)cc1Cl (centres undefined) | i
COc1ccc(-c2ccc(N3CCCC(C(=O)N4CCN(C(=O)c5ccco5)CC4)C3)nn2)cc1 (centres undefined) | i
Cc1ccc(Oc2cccc(C(=O)N3CCN(c4ccc(-n5cccc5)nn4)CC3)c2)nn1 | i
CCn1c(SCC(=O)Nc2ccc(OC)cc2OC)nc2cc(-c3ccccc3)sc2c1=O | i
Cc1ccc(OCC(O)Cn2c(NCCc3ccccc3)nc3c2c(=O)n(C)c(=O)n3C)cc1C (centres undefined) | i
CC1(C)Cc2cccc(OCC(=O)N3CCCC(c4nnc(-c5ccccc5F)s4)C3)c2O1 (centres undefined) | i
CN(C)c1cccc(C(=O)N2CCC(CSC3=NCCS3)CC2)c1 | i
CN1CCN(c2nnc(SCC(=O)Nc3cccc(C(F)(F)F)c3)s2)CC1 | i
COC(=O)COc1ccc2c(c1)O/C(=C\C=C\c1ccccc1)C2=O | i
Cc1cc(C)c2sc(N(CC3CCCO3)C(=O)c3ccc(S(=O)(=O)C(C)C)cc3)nc2c1 (centres undefined) | i
Cc1cccc(N2CCN(S(=O)(=O)CCCNC(=O)c3c(F)cccc3F)CC2)c1 | i
CC(C)(C)N(C(=O)c1ccc([N+](=O)[O-])cc1)C(=O)N1CCCCC1 | i
Cc1cc(Nc2ccc(NC(=O)c3sc(C)nc3C)cc2)nc(N2CCCC2)n1 | i
CC(C)OCCCNC(=O)c1c(N)n(/N=C\c2ccccn2)c2nc3ccccc3nc12 | i
Cc1ccc(Cn2c(C3CC(=O)N(c4ccc(C)cc4)C3)nc3ccccc32)cc1 (centres undefined) | i
O=C(c1nnn(-c2ccc(Cl)cc2)n1)N1CCC2(CC1)OCCO2 | i
CCN(c1ccsc1C(=O)N1CCCCCC1)S(=O)(=O)c1ccc(Cl)cc1 | i
Cc1cc(C)c(S(=O)(=O)N2CCN(c3ccc4nncn4n3)CC2)cc1C | i

Some of these compounds in order of formula weight, lowest first:
SMILES | GIRK2 activ
COC(=O)COc1ccc2c(c1)O/C(=C\C=C\c1ccccc1)C2=O | i
Cc1ccc(Cn2c(C3CC(=O)N(c4ccc(C)cc4)C3)nc3ccccc32)cc1 (centres undefined) | i
Cc1cccc(N2CCN(S(=O)(=O)CCCNC(=O)c3c(F)cccc3F)CC2)c1 | i

The results go on.
SMILES | GIRK2 activ
COc1ccc(-c2c(-c3ccc(O)cc3O)n[nH]c2C)cc1OC | i
NC(=O)C1CCN(C(=O)c2c[nH]c3c(C(F)(F)F)cccc3c2=O)CC1 | i
O=S(=O)(CCOc1ccccc1)N1CCN(c2ncccn2)CC1 | i
O=C(CSc1nccn2nc(-c3ccc(Cl)cc3)cc12)Nc1nccs1 | i
COC(=O)Cn1c(=O)c2c(nc3n2CCCN3Cc2ccccc2)n(C)c1=O | i
O=C(CSc1nc(-c2cccc([N+](=O)[O-])c2)cs1)c1ccc2c(c1)OCO2 | i
O=C(NCCOc1ccccc1)NCc1ccc(C(=O)c2cccs2)s1 | i
Cc1oncc1C(=O)Nc1ccc2c(c1)N(C(=O)C1CCCC1)CC2 | i
O=C(c1c[nH]c2ccccc12)N1CCC(CSc2ccccn2)CC1 | i
Cc1cc(C(=O)Nc2nc3c(s2)CN(S(=O)(=O)C2CC2)CC3)c(C)o1 | i
O=C(CN1CCN(S(=O)(=O)N2CCOCC2)CC1)Nc1cc(Cl)cc(Cl)c1 | i
CCCCn1c(=O)c2c(nc3n2CCN3c2cc(C)ccc2OC)n(C)c1=O | i
CS(=O)(=O)Nc1ccc(N=Cc2c(O)[nH]c3ccccc23)cc1 | i
O=C(NCCOc1cc(N2CCOCC2)ncn1)C1CCCO1 (centres undefined) | i
COc1ccc2c(c1)CCN(C(=O)CN1CCN(c3cccc(Cl)c3)C1=O)C2 | i
CCOC(=O)c1cnn(-c2ccc(C(=O)NC3CCCCC3)cn2)c1C | i
C=CCNC(=O)N1CCN(c2nc3c(C)c(C)ccc3s2)CC1 | i
COc1ccc(-c2coc3cc(OC(=O)c4ccc5c(c4)OCO5)ccc3c2=O)cc1OC | i
O=C(c1ccc2c(=O)nc3c(-c4cccc(F)c4)n[nH]n3c2c1)N1CCN(c2ccccc2F)CC1 | i
COc1ccccc1N1CCN(CCNC(=O)c2c(C)cc(C)cc2C)CC1 | i
Cc1ccsc1C(O)CNC(=O)CSC1CCCC1 (centres undefined) | i
Cn1nc(C2CCN(C(=O)Cn3ccc4ccccc43)CC2)n(-c2ccccc2)c1=O | i
C=CCn1c(=O)c2c(nc3n2CCCN3c2ccc(C)cc2C)n(C)c1=O | i
O=c1ccc(-c2ccc3c(c2)OCO3)nn1Cc1nc(-c2ccc3c(c2)OCO3)no1 | i

The closing six compounds of the section before open the next one:
SMILES | GIRK2 activ
O=C(c1ccc2c(=O)nc3c(-c4cccc(F)c4)n[nH]n3c2c1)N1CCN(c2ccccc2F)CC1 | i
COc1ccccc1N1CCN(CCNC(=O)c2c(C)cc(C)cc2C)CC1 | i
Cc1ccsc1C(O)CNC(=O)CSC1CCCC1 (centres undefined) | i
Cn1nc(C2CCN(C(=O)Cn3ccc4ccccc43)CC2)n(-c2ccccc2)c1=O | i
C=CCn1c(=O)c2c(nc3n2CCCN3c2ccc(C)cc2C)n(C)c1=O | i
O=c1ccc(-c2ccc3c(c2)OCO3)nn1Cc1nc(-c2ccc3c(c2)OCO3)no1 | i
COCCn1c(=O)c2c(nc3n(C4CCCC4)c(C)cn23)n(C)c1=O | i
O=C(c1ccc(F)cc1F)N1CCN(CC(F)(F)F)CC1 | i
CCCCCn1c(=S)[nH]c2cc(C(=O)Nc3ccc(OCC)cc3)ccc2c1=O | i
COc1cccc(Nc2c(C(=O)N3CCCCCC3)cnc3nc(C)ccc23)c1 | i
CSc1ccc(/C=C2\C=C(CC(=O)NCc3ccccc3N)c3cc(F)ccc32)cc1 | i
Cc1c(Cl)cccc1NC(=O)C(=O)NC1CCCC1 | i
COc1ccc(C(O)=C2C(=O)C(=O)N(c3nc(C)c(C)s3)C2c2ccco2)cc1 (centres undefined) | i
CCc1ccc(N2CCCn3c2nc2c3c(=O)n(CC(N)=O)c(=O)n2C)cc1 | i
Cc1ccc(S(=O)(=O)N2CCCCC2CCN)cc1 (centres undefined) | i
CCCS(=O)(=O)Nc1ccc2c(c1)N(S(=O)(=O)c1ccccc1)CCC2 | i
O=C(NCCc1c[nH]c2ccccc12)C(=O)Nc1ccc(OC(F)(F)F)cc1 | i
COc1ccc(CNC(=O)NCc2sc(C)nc2C)cc1OC | i
O=C(Nc1cccc(Cl)c1)N1CC(c2nc(C3CC3)no2)C1 | i
O=C1/C(=C/c2ccncc2)Oc2cc(OS(=O)(=O)c3ccccc3)ccc21 | i

Entries listed so far with a nitro group on carbon, in the order listed:
SMILES | GIRK2 activ
COc1ccc(NC(=O)CCCSc2ccc(F)cc2)c([N+](=O)[O-])c1 | i
CC(C)(C)N(C(=O)c1ccc([N+](=O)[O-])cc1)C(=O)N1CCCCC1 | i
O=C(CSc1nc(-c2cccc([N+](=O)[O-])c2)cs1)c1ccc2c(c1)OCO2 | i

Compound activity from PubChem.
